NPR1 antag: antagonists of human natriuretic peptide receptor Npr1; actives 1.6% (n = 76,000); P16066; AID 1347048; Potency, µM (series often up to 46.3 µM), for inactives: at the highest dose activity change, negative = inhibition, most hits filed as inhibitors; HEK293 hNpr1 GloSensor cGMP, ANP-stimulated luminescence; active = well fitted inhibition curve with a large enough effect; inconclusive = small, poorly fitted or top-dose-only effect; inactive = no such curve, though single readings can be large or run the other way;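 further: nearly all actives have a fitted effect of over 60% in size; nearly all hits also lower the signal before the agonist is added; a reference antagonist and vehicle were the controls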
Target sequence (P16066 whole entry, looked up): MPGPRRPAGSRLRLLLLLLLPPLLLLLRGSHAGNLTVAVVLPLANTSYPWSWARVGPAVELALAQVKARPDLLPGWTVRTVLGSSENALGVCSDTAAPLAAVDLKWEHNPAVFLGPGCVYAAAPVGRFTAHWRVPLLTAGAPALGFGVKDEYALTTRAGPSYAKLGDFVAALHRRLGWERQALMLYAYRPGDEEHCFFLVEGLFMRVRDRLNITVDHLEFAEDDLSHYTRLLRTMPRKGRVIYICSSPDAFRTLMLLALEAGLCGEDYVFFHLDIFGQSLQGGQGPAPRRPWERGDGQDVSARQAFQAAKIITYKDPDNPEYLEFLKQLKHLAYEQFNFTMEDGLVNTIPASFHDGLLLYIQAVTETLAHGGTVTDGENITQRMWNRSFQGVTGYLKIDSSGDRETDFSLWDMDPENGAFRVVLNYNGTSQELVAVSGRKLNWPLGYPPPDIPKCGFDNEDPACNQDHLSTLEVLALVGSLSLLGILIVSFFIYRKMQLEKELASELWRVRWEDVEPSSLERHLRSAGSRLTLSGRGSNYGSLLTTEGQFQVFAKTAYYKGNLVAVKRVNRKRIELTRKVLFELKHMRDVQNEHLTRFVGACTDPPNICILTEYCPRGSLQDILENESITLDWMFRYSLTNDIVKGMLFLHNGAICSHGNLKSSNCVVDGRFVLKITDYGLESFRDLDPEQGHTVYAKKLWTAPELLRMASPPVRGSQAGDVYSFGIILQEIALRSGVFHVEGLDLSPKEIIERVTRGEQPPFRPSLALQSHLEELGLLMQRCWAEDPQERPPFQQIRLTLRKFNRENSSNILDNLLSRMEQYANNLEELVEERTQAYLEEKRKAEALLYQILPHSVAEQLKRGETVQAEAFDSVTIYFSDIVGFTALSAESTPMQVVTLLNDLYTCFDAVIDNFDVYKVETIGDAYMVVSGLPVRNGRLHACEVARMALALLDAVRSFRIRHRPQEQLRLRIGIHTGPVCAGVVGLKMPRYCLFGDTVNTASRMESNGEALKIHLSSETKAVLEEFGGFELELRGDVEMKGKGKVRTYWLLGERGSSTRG
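HEK293 cells stably expressing human Npr1 and cGMP GloSensor pGS-40F, loaded 2 h with 2% GloSensor reagent, given compound 30 min at room temperature. Luminescence read before and 20 min after 0.1 nM hNppA.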
An asterisk follows results filed as active; ? = inconclusive; [ ] = another dose, or the depositor's remark. On the % scale 0 is the no-effect control and ±100 the full control effect; potency means the concentration at half of the fitted maximal effect.

SMILES | NPR1 antag
CN(C)C(=O)c1cccnc1OC1CCN(S(=O)(=O)c2ccc3c(c2)OCCO3)C1 (configuration not stated) | 0%
c1ccc2c(c1)CNC1(CCN(Cc3cccc4ccccc34)CC1)CO2 | 6%
CC(C)[S+](=O)([O-])N1CC2(CN(Cc3ccc(Cl)cc3)C(=O)O2)C1 | 8%[70.6 µM]
Cc1cncc(C(=O)NC2CCN(c3ccc(=O)n(C)n3)CC2)c1 | 1%
CNC(=O)[C@@H]1CN(C(=O)c2ccccc2C(F)(F)F)C[C@H]1c1n[nH]c(C)n1 | 1%
CN1C(=O)c2cccn2CC1C(=O)NCc1cc(F)ccc1F (configuration not stated) | -8%
COCCNC(=O)[C@H]1C[C@H](Oc2cccnc2)CN1C(=O)c1cccs1 | 0%
COCCC(=O)N1CCCCCCN(C)C(=O)[C@@H]2CCC[C@@H]21 | 0%
COC(=O)c1cccc(-c2nc(C3CC(=O)N(c4ccc(F)c(Cl)c4)C3)no2)c1 (configuration not stated) | 6%
O=C(c1ccccc1F)N1CCC(c2n[nH]c(=O)n2-c2ccccc2)CC1 | 3%
CN1C(=O)c2cccn2CC1CNC(=O)CCc1ccccc1 (configuration not stated) | 4%
O=C(O)c1ccnc(-c2ccnc(NCc3noc(C4CCCC4)n3)n2)c1 | 5%
Cc1nc(CN2C(=O)OC3(CCN(Cc4ccccc4F)CC3)C2(C)c2ccccc2)cs1 (configuration not stated) | 1%
COc1ccc(NC(=O)O[C@@H]2CC[C@]3(C)C(CC[C@H]4OC(=O)C[C@H]43)[C@]2(C)CO)cc1 (some centres not stated) | -6%[70.6 µM]
O=C1CCCCC(C(=O)N2CCc3ccccc3C2)N1 (configuration not stated) | 5%
CCOC(=O)C1(Cc2ccc(F)cc2F)CCCN(C(=O)c2cccnc2SC)C1 (configuration not stated) | -21%
COc1cccc(N2CCN(C(=O)CCC[C@@H]3[C@H]4CCCN5CCC[C@@H](CN3C)[C@@H]45)CC2)c1 | 1%
COc1ccc(C(=O)N2CCCN(c3nnc4ccc(Cl)cn34)CC2)cn1 | -6%
Cn1c(Cn2cccn2)nnc1C1CCCN(C(=O)CCn2cnnn2)C1 (configuration not stated) | -10%
COc1ccc(C(=O)N2CCC3(CC2)NC(=O)N(Cc2ccccc2Cl)C3=O)cc1 | ?
COc1cccc(C(=O)NCC2CCCN(Cc3cccnc3)C2)c1OC (configuration not stated) | 8%
CC(C)C[C@@H](NC(=O)[C@@H]1C[C@@H](NS(=O)(=O)c2cccs2)CCN1C(=O)c1cccn1C)C(N)=O | 4%
CN1CCCCCCN(C(=O)NCc2ccccc2)[C@H]2CCC[C@H]2C1=O | 1%
CCC(=O)N1CCCCCCn2c(nnc2-c2ccc(F)cc2)CC1 | -14%
COCc1noc(CCNC(=O)c2cc(-c3ccccc3)on2)n1 | 3%
CC(C)CCNC(=O)N1CCCC(c2noc(COc3ccccc3F)n2)C1 (configuration not stated) | 2%
COc1ncccc1-c1cnc2[nH]cc(CC(=O)Nc3ccccc3C)c2c1 | -29%[70.6 µM]
O=C(CN1CC2CC(C1)[C@H]1CCCC(=O)N1C2)NCc1ccc(N2CCOCC2)cc1 (some centres not stated) | -8%
CN1[C@@H](CCC(=O)N2CCC(O)CC2)CNC(=O)[C@@H]2[C@H]1CCN2Cc1nc2ccccc2n1C | 7%
Cc1cc(F)ccc1Nc1ncncc1-c1nc(-c2ccccc2)no1 | -8%
COc1ccccc1-n1nc(CC(N)=O)nc1Cn1cnc2ccccc21 | -2%
O=C(NC1CCN(c2cc(-c3ccc(Cl)cc3)[nH]n2)C1)c1c[nH]c2ccccc12 (configuration not stated) | -7%
Cn1cnc(S(=O)(=O)N2CCC3(CC2)N(Cc2cccc(F)c2)C(=O)CS3=O)c1 (configuration not stated) | 11%
CCS(=O)(=O)N1CCC2(CC1)CC(N1CCN(C(C)C)CC1)CCO2 (configuration not stated) | 3%
O=C(CCCc1ccccc1)Nc1ccc(-c2nnc3n2CCCC3)cc1 | -2%
O=C1CC(c2ccccc2)N(C(=O)CNS(=O)(=O)c2ccccc2)CCCCCCN1 (configuration not stated) | -3%
Clc1ccc2nc(-c3nc(C4CCOC4)no3)cn2c1 (configuration not stated) | 0%
O=C(C1CC1)N1CCCC(CN2CCCC2)CC1 (configuration not stated) | -2%
CC(C)CNc1ccc2c(n1)C(C)(C(=O)Nc1cccnc1)CN(Cc1ccccc1)C2 (configuration not stated) | -17%[70.6 µM]
COc1ccc(-c2ccc3nnc(CNC(=O)CCc4cccc(OC)c4)n3n2)cc1 | 4%
CCCS(=O)(=O)N1CC[C@H]2C(=O)NCCCCCCN(Cc3ccncc3)[C@@H]2C1 | -7%
COCCN1C(=O)c2ccccc2C(C(=O)Nc2cccc(NC(C)=O)c2)C12CCCCC2 (configuration not stated) | 4%
CC(C)N1C[C@H](O)C[C@H]1c1nnc2n1CCN(C(=O)COc1ccc(F)cc1)C2 | -5%
CCOc1ccc(-c2nc(C3CC(=O)N(c4ccc(F)c(Cl)c4)C3)no2)cc1 (configuration not stated) | ?
COc1ccc(CNC(=O)Nc2cccc(-c3ccc(N4CCCCC4)nn3)c2)cc1 | 8.9µM*
C#CCNC(=O)[C@@H]1Cc2cn(CC3CC3)c3cccc(c23)[C@H](CC(C)C)N1 | -13%[70.6 µM]
O=C1NCN(Cc2ccc(Cl)cc2)C12CCN([S+](=O)([O-])c1cccs1)CC2 | 0%
COc1cccc(-c2cc(C3CCN(C(=O)Nc4cccc(F)c4)CC3)[nH]n2)c1 | 4%
COc1ccc(OCC2CCCN(C(=O)c3cn(C4CCCCC4)nn3)C2)cc1 (configuration not stated) | -3%
COCCNC(=O)[C@@H]1C[C@H](Oc2ccccc2)CN1C(=O)C(C)C | 3%
COc1ccc2[nH]c3c(c2c1)CCNC31CCN(Cc2ccc(F)cc2F)CC1 | -9%
CN(CCc1ccccc1)CC[C@@H]1CC[C@H](O)[C@@H](C(=O)NC2CCCCC2)O1 | 1%[70.6 µM]
COCCN(C)C[C@@H]1CN(C(=O)c2nc(-c3ccccc3)[nH]c2C)C[C@@H]1CO | -3%
Cc1ccc(-c2nnc(C3CN(C(=O)C4CCCCCC4)CC34CCOCC4)o2)cc1 (configuration not stated) | -17%
CCn1cc(S(=O)(=O)N2CCC(C3CCN(C(=O)NC)CC3)C2)cn1 (configuration not stated) | 10%
CCCCc1cn([C@@H]2CN[C@H](C(=O)O)C2)nn1 | 0%
COc1cccc(OC2CN(C(=O)C3CC(=O)N(Cc4cccnc4)C3)C2)c1 (configuration not stated) | -2%
O=C(NC1CCCCCC1)C1CCN(c2cn[nH]c(=O)c2)C1 (configuration not stated) | 22%
C[C@@H]1C(=O)O[C@H]2[C@H]1CC[C@@]1(C)Cc3sc(Nc4ccc(C(=O)O)cc4)nc3[C@@H](C)[C@H]21 | 13µM*
O=C1N[C@@H]2CCN(C(=O)c3ccc(C(F)(F)F)cc3)[C@@H]2C(=O)N1c1ccccc1 | 3%[70.6 µM]

Other results follow:
SMILES | NPR1 antag
CC[C@H]1CN(C(=O)NC(C)C)CC[C@H]1CC(=O)N(C)CCC#N | 3%[70.6 µM]
O=C(Cn1nc2c(cc1=O)CCCCC2)NCCc1ccco1 | 4%
CCOc1ccccc1CNC(=O)C1CCN(C(=O)c2ncn3c2COC(c2ccccc2)C3)CC1 (configuration not stated) | -12%
CC(C)CNC(=O)c1ccc(N2CC3CC(C2)[C@H]2CCCC(=O)N2C3)nc1 (some centres not stated) | 1%
O=C(c1cc[nH]c1C1CCCNC1)N(Cc1ccc(F)cc1)Cc1cccnc1 (configuration not stated) | -18%
CC1=C(C(=O)Nc2ccccc2)C(c2cc(C)ccc2C)N2C(CC(=O)N3CCCC3)=CSC2=N1 (configuration not stated) | ?
O=C(Cc1ccc(N(Cc2ccccc2)C(=O)c2ccco2)cc1)NCC1CCCO1 (configuration not stated) | 2%
O=C1NCCCCCCN(S(=O)(=O)c2cccc(F)c2)[C@H]2CCC[C@@H]12 | -2%
Cc1ccsc1C(=O)N1CCC2(CC1)CC(OCC1CC1)CCO2 (configuration not stated) | -1%
CN(C)C(=O)c1cccnc1OC1CCN(C(=O)c2ccnn2C)C1 (configuration not stated) | -1%
CCOc1ccc(CC(=O)N2c3ccccc3CC2c2nc(C3CC3)no2)cc1OCC (configuration not stated) | -13%
CC(C)C(=O)N1CCC(Oc2ccc3c(cnn3CCC(=O)O)c2)CC1 | 0%[70.6 µM]

17 consecutive compounds out of the list so far:
SMILES | NPR1 antag
CN(C)C(=O)c1cccnc1OC1CCN(S(=O)(=O)c2ccc3c(c2)OCCO3)C1 (configuration not stated) | 0%
c1ccc2c(c1)CNC1(CCN(Cc3cccc4ccccc34)CC1)CO2 | 6%
CC(C)[S+](=O)([O-])N1CC2(CN(Cc3ccc(Cl)cc3)C(=O)O2)C1 | 8%[70.6 µM]
Cc1cncc(C(=O)NC2CCN(c3ccc(=O)n(C)n3)CC2)c1 | 1%
CNC(=O)[C@@H]1CN(C(=O)c2ccccc2C(F)(F)F)C[C@H]1c1n[nH]c(C)n1 | 1%
CN1C(=O)c2cccn2CC1C(=O)NCc1cc(F)ccc1F (configuration not stated) | -8%
COCCNC(=O)[C@H]1C[C@H](Oc2cccnc2)CN1C(=O)c1cccs1 | 0%
COCCC(=O)N1CCCCCCN(C)C(=O)[C@@H]2CCC[C@@H]21 | 0%
COC(=O)c1cccc(-c2nc(C3CC(=O)N(c4ccc(F)c(Cl)c4)C3)no2)c1 (configuration not stated) | 6%
O=C(c1ccccc1F)N1CCC(c2n[nH]c(=O)n2-c2ccccc2)CC1 | 3%
CN1C(=O)c2cccn2CC1CNC(=O)CCc1ccccc1 (configuration not stated) | 4%
O=C(O)c1ccnc(-c2ccnc(NCc3noc(C4CCCC4)n3)n2)c1 | 5%
Cc1nc(CN2C(=O)OC3(CCN(Cc4ccccc4F)CC3)C2(C)c2ccccc2)cs1 (configuration not stated) | 1%
COc1ccc(NC(=O)O[C@@H]2CC[C@]3(C)C(CC[C@H]4OC(=O)C[C@H]43)[C@]2(C)CO)cc1 (some centres not stated) | -6%[70.6 µM]
O=C1CCCCC(C(=O)N2CCc3ccccc3C2)N1 (configuration not stated) | 5%
CCOC(=O)C1(Cc2ccc(F)cc2F)CCCN(C(=O)c2cccnc2SC)C1 (configuration not stated) | -21%
COc1cccc(N2CCN(C(=O)CCC[C@@H]3[C@H]4CCCN5CCC[C@@H](CN3C)[C@@H]45)CC2)c1 | 1%

The list continues.
SMILES | NPR1 antag
O=C(CCc1nc(C2CCCN2Cc2ccc3[nH]ccc3c2)no1)N1CCCC1 (configuration not stated) | -2%
Cc1ccc(C(C)CCN2CCC(n3nccc3NC(=O)Cc3ccccc3)CC2)o1 (configuration not stated) | 3%
Cc1ccc2c(C(=O)Nc3ccc(Cl)nc3)cnn2c1 | -10%[70.6 µM]
CO[C@H]1[C@H](NC(=O)Cc2ccc(C)cc2)c2ccccc2C12CCNCC2 | 3%
CCN(CC)C(=O)C[C@@H]1CCNC[C@@H]1Cc1cc(-c2ccc(C(C)(C)C)cc2)on1 | 7%[70.6 µM]
O=C(NCc1ccccc1)N1CC(c2nc(CCOCC3CCCC3)no2)C1 | -3%
CCOc1ccc(C(=O)N2CCC3(CCC(=O)N(CCOC)CC3)CC2)cc1 | 2%
O=C(CCCc1ccccc1)N1CCC(c2noc(-c3cnccn3)n2)C1 (configuration not stated) | 3%
CCN1CC(c2nc(-c3ccc4nc[nH]c4c3)no2)CCC1=O (configuration not stated) | 2%
O=C(NCc1ccccc1F)c1ccc2c(c1)CN(CC1=Cc3ccccc3OC1)CCO2 | -21%
O=C(CN1C(=O)COc2ccc(C(=O)COc3ccccc3Cl)cc21)NCc1ccco1 | -4%
COc1ccc(NC(=O)N[C@H]2[C@H](O)[C@@H](N3CCN(C)CC3)[C@@H]3OC[C@H]2O3)cc1 | 7%[70.6 µM]
COc1ccccc1OCCNC(=O)C(C)C1CCOCC1 (configuration not stated) | -8%
COc1cc(=O)n2c(c1C(=O)Nc1cccc(C)c1C)CCCC2 | 1%
CC(=O)Nc1ccc(S(=O)(=O)N[C@H]2CO[C@H]3[C@@H]2OC[C@@H]3n2nnnc2Oc2ccccc2)cc1 | -1%
O=C(O)c1ccc(CN2CCC[C@H]2c2nc(-c3ccc(F)cn3)no2)cc1 | -1%[70.6 µM]
O=C1NCCN2CC3(CCN(C(=O)C4(c5ccccc5)CC4)CC3)CC12 (configuration not stated) | 2%
COCc1nc(-c2ccc(OC3CN(Cc4cccs4)C3)cc2)no1 | -2%
Cc1nn(CC(=O)O)c(=O)c2nc(C(C)C)sc12 | 4%
CCC(Cn1ccnc1-c1ccc(SC)cc1)N1CCN(C)CC1 (configuration not stated) | -2%
O=C(Cc1ccccc1Cl)N1CCC2(CC1)CC(O)CCO2 (configuration not stated) | -1%
COc1cccc(S(=O)(=O)N2CCCC(c3nc(-c4cnccn4)no3)CCNC(=O)CC2)c1 (configuration not stated) | -1%
CCN1C(=O)Cc2ccccc2C1C(=O)NCc1ccc(C)cc1 (configuration not stated) | 0%
COCc1ccc2c(c1)c(OC(C)(C)C(=O)Nc1ccccn1)nn2Cc1ccccc1 | -4%[70.6 µM]
O=C1N[C@H](CC(=O)N2CCc3ccccc3C2)C(=O)Nc2ccccc21 | -17%
O=C(C1CCOCC1)N1CCOC[C@H](Oc2cnccn2)C1 | 8%[70.6 µM]
Cc1ncoc1C(=O)N1CCCC(c2nc(-c3cccnc3)no2)CCNC(=O)CC1 (configuration not stated) | 1%
COCC1CN(C(C)=O)CC12CCN(C(=O)c1cc(C)cc(C)c1)CC2 (configuration not stated) | -6%
CC(=O)Nc1ccc(S(=O)(=O)N2CCC(CCC(=O)Nc3cccc(C)c3)CC2)cc1 | -25%
CN(C)C(=O)c1cccnc1OC1CCN(C(=O)Nc2cc(F)cc(F)c2)C1 (configuration not stated) | -1%
CN1C(=O)c2cccn2CC1CNC(=O)Nc1ccccc1 (configuration not stated) | 3%

High-throughput results deposited in PubChem BioAssay by National Center for Advancing Translational Sciences (NCATS).

This is a subset. The share of hits here may be higher or lower than overall.
